# Screens (PubChem BioAssay)
# Marburg entry inh = blocks Marburg virus binding to or entry into cells | Marburg virus pseudotyped entry inhibition, cell reporter; control for the full effect not named in the record; about a third of the inactives were read at about 46 µM | Potency, µM (series often up to 37.8 µM), inactives show at the highest dose activity change, negative = inhibition, most hits filed as inhibitors | hit rate 1.8% among 300,000 | AID 540276; active = well fitted inhibition curve with a large enough effect; inconclusive = small, poorly fitted or top-dose-only effect, or effect the other way; inactive = flat fitted curve, though single readings scatter; tested in HEK293 cells; about a fifth of its hits are not listed in these tables; also: % is scaled to controls: 0 for no effect and ±100 for the full control effect; luciferase read-out
# Cruzain inh Det = inhibitors of Trypanosoma cruzi cruzain with detergent. purified cruzain, Z-FR-AMC fluorescence, 0.01% Triton. Potency, µM, for the others: max response, negative = inhibition, usual class: inhibitors. hit rate 0.43% among 200,000. AID 1478; active = well fitted curve in the direction sought with a large enough effect; inconclusive = small, poorly fitted or top-dose-only effect, or another doubt; inactive = no such curve, though single readings can be large; an effect the other way counts as inactive or inconclusive;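 also: plate controls were neutral wells for no effect and buffer without enzyme for full effect; nearly all actives have a fitted effect of over 40% in size; top concentration of the series not given in the record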
# Target sequence (P25779 123-467 limits assumed): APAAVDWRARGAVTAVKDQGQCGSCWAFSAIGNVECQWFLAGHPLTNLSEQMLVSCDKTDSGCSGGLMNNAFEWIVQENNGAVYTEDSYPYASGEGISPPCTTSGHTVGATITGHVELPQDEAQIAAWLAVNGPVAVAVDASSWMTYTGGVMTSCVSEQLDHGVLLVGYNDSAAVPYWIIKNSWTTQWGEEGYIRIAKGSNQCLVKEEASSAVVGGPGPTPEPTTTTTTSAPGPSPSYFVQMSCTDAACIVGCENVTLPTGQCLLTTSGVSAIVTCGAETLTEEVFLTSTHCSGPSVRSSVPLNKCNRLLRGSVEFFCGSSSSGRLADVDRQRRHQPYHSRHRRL
#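 Detergent-containing arm of a paired screen for aggregation-based inhibition: 0.01% Triton X-100 present. Cruzain at 1.5 nM cleaved 2 uM Z-FR-AMC at pH 5.5 with 5 mM DTT; AMC fluorescence gain over 60 s measured activity.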
# NS1 inh = influenza NS1 inhibition. S. cerevisiae slowed by influenza A NS1, growth recovery by OD600. Potency, µM (top dose mostly 46.1 µM), inactives show at the top dose activity, positive = more growth. hit rate 0.4% among 270,000; also: actives are rising curves; nearly all actives have a fitted effect of over 50% in size
#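 Read-out: OD600 growth recovery of NS1-expressing budding yeast. Cells grown overnight at 30C in -URA glucose medium, washed, resuspended and diluted 1:100 in 2% galactose assay medium, pH 6.0. Same strain lacking NS1 served as positive control.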
# Cruzain noTriton = blocks cruzain activity in detergent-free assay; P25779; purified cruzain, Z-FR-AMC fluorescence, no detergent; Potency, µM, for the others: max response, negative = inhibition, hits mostly inhibitors; hit rate 2.3% among 200,000; AID 1476; active = well fitted curve in the direction sought with a large enough effect; inconclusive = small, poorly fitted or top-dose-only effect, or another doubt; inactive = no such curve, though single readings can be large; an effect the other way counts as inactive or inconclusive;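 also: plate controls were enzyme without inhibitor for no effect and buffer without enzyme for full effect; nearly all actives have a fitted effect of over 40% in size; top concentration of the series not given in the record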
#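 Purified cruzain at 1.5 nM, pre-incubated 15 min with compound at room temperature in 100 mM sodium acetate pH 5.5, 5 mM DTT, 0.00005% Triton X-100. Reaction started with 2 uM Z-FR-AMC; AMC fluorescence increase over 60 s gives rate.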
# RE007 growth inh = less growth of the S. pombe RE007 Vpr strain. Potency, µM (titrated, usually from 92.2 µM), for inactives: at the highest dose activity change, negative = less growth. AID 651644. hit rate 0.21% among 360,000. S. pombe RE007 Vpr strain, BacTiter-Glo ATP luminescence, 24 h; control for the full effect not named in the record; active = well fitted falling curve with a large enough effect; inconclusive = small, poorly fitted or top-dose-only effect; inactive = no such curve, though single readings can be large or run the other way;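 also: % is scaled to controls: 0 for no effect and ±100 for the full control effect; nearly all actives have a fitted effect of over 50% in size; the assay follows cell death caused by Vpr and the record does not say whether a fall means rescue or toxicity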
#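 Fission yeast strain RE007, carrying one chromosomally integrated HIV-1 vpr copy, was seeded at OD 0.01 in PMG+AL medium with 23 nL pinned compound. After 24 h at 30 °C and 99% humidity, viability was read by BacTiter-Glo luminescence.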
# SARS PLP yeast = inhibitors of SARS-CoV papain-like protease in yeast. S. cerevisiae expressing SARS-CoV PLpro, growth rescue; control for the full effect not named in the record. Potency, µM (doses to about 32.9 µM), without a hit: at the top dose activity, positive = growth rescue. hit rate 0.19% among 330,000; also: 0% is about no effect; nearly all actives have a fitted effect of over 55% in size; growth read by luminescence after 48 h
# Lassa entry inh = inhibitors of Lassa virus binding or cell entry; hit rate 1.2% among 300,000; Lassa virus pseudotype entry inhibition, cell reporter; control for the full effect not named in the record; AID 540256; Potency, µM (top dose mostly 37.9 µM), for inactives: at the top dose activity change, negative = inhibition, actives largely listed as inhibitors; active means well fitted inhibition curve with a large enough effect; inconclusive means small, poorly fitted or top-dose-only effect, or effect the other way; inactive means flat fitted curve, though single readings scatter; tested in HEK293 cells; also: % is scaled to controls: 0 for no effect and ±100 for the full control effect; nearly all actives have a fitted effect of over 50% in size; luciferase read-out
# StopGo reporter = lowers the luciferase signal of an FMDV 2A StopGo reporter; human cells with a luciferase reporter of 2A StopGo recoding; control for the full effect not named in the record; Potency, µM (titrated, usually from 57.9 µM), for inactives: at the top dose signal change, negative = less light; hit rate 1.2% among 410,000; active = well fitted falling curve with a large enough effect; inconclusive = small, poorly fitted or top-dose-only effect; inactive = no such curve, though single readings can be large or run the other way; tested in HEK293T cells; also: % is scaled to controls: 0 for no effect and ±100 for the full control effect; nearly all actives have a fitted effect of over 45% in size; luciferase light after 4 h
# * = called active by the depositor; ? = inconclusive; . = not tested or not shown; & = joins results of further samples; [ ] = remark or other dose. Unless noted, calls follow the shape of the dose curve; as a rule, active means well fitted rising curve with a large enough effect; inconclusive means small, poorly fitted or top-dose-only effect; inactive means no such curve, though single readings can be large or run the other way. Potency is read from the fitted curve at half-maximal effect.
Structure | Marburg entry inh | Cruzain inh Det | NS1 inh | Cruzain noTriton | RE007 growth inh | SARS PLP yeast | Lassa entry inh | StopGo reporter
Cc1ccc2c(c1)C1CN(C)CCC1N2C(=S)Nc1ccc(OC(F)F)cc1 (configuration not stated) | ? | . | . | . | 11% | -5% | ? | -9%
CCCOc1ccc(/C(O)=C2/C(=O)C(=O)N(CCOC)C2c2cccnc2)cc1 (configuration not stated) | 2% | 1.7% | 4% | -1% | . | 5% | . | .
Cc1nc2ccc(C(=O)OCC(=O)N(C)c3ccccc3)cc2nc1C | ? | . | . | . | 2% | 4% | -11%[46.1 µM] | -2%
Cc1ccc(-n2c(C)nnc2SCC(=O)NC2CCCC2)cc1 | 16% | . | 2% | . | 2% | 19% | 3% | -13%
N#C/C(=C\c1ccc(OC(=O)c2ccc(Cl)s2)cc1)c1nc2ccccc2[nH]1 | ? | -25% | -24% | 4µM* | -19% | -3% | -56% | 11%
O=C(CN(Cc1ccco1)C(=O)CNS(=O)(=O)c1ccc(F)cc1)NCCc1ccccc1 | ? | 4.8% | -6% | 1% | 6% | -2% | -5% | -12%
CCCSc1nc2c(c(=O)[nH]1)C(c1ccc(F)cc1F)CC(=O)N2 (configuration not stated) | 5%[46.1 µM] | -1.0% | . | 4% | . | . | -22%[46.1 µM] | 2%
Cc1ccccc1NC(=O)CCNS(=O)(=O)c1ccc2[nH]c(=O)oc2c1 | . | . | 24% | . | 1% | 4% | . | -1%
COc1ccc(CN2CCNC(=O)C2CC(=O)NC2CCCCCC2)c(F)c1 (configuration not stated) | 5% | . | 12% | . | -1% | 1% | 3% | 5%
O=C(Cc1ccccc1F)Nc1nc(-c2ccc(F)c(F)c2)cs1 | ? | . | -30% | . | 5% | -26% | ? | 27%

# 3 structures out of the list, sorted by count of non-hydrogen atoms, rising:
Structure | Marburg entry inh | Cruzain inh Det | NS1 inh | Cruzain noTriton | RE007 growth inh | SARS PLP yeast | Lassa entry inh | StopGo reporter
CCCSc1nc2c(c(=O)[nH]1)C(c1ccc(F)cc1F)CC(=O)N2 (configuration not stated) | 5%[46.1 µM] | -1.0% | . | 4% | . | . | -22%[46.1 µM] | 2%
Cc1nc2ccc(C(=O)OCC(=O)N(C)c3ccccc3)cc2nc1C | ? | . | . | . | 2% | 4% | -11%[46.1 µM] | -2%
COc1ccc(CN2CCNC(=O)C2CC(=O)NC2CCCCCC2)c(F)c1 (configuration not stated) | 5% | . | 12% | . | -1% | 1% | 3% | 5%

# Remaining list, next part.
Structure | Marburg entry inh | Cruzain inh Det | NS1 inh | Cruzain noTriton | RE007 growth inh | SARS PLP yeast | Lassa entry inh | StopGo reporter
O=C(O)CC(SCC(=O)Nc1ccc(S(=O)(=O)N2CCCC2)cc1)C(=O)O (configuration not stated) | -2%[46.1 µM] | . | . | . | 1% | -3% | -21%[46.1 µM] | -6%
CSc1n[nH]c(NC(=O)c2c(-c3c(Cl)cccc3Cl)noc2C)n1 | ? | . | -1% | . | 16% | 1% | 3% | -27%
O=Cc1ccc(OCCOc2ccc([N+](=O)[O-])cc2)cc1 | . | . | 0% | . | 1% | -1% | . | 5%
Cn1nc(C(=O)OCC(=O)c2ccc[nH]2)c2ccccc2c1=O | 6%[46.1 µM] | . | -2% | . | -7% | -1% | -13% | 30%[activator]
N#Cc1cc2c(nc1SCc1ccccc1)CCCCC2 | -1% | 3.4% | -9% | 8% | -3% | -2% | ? | 5%
COCCNC(=O)Cc1cn(C)c2ccccc12 | -12% | 6.0% | -4% | 0% | 10% | ? | 7% | -21%
CCOC(=O)N1CCN(S(=O)(=O)c2ccc(NC(C)=O)cc2)CC1 | . | . | 3% | . | 4% | -2% | . | ?
Cc1sc2ncn(CC(=O)N(C)c3ccc(C(C)C)cc3)c(=O)c2c1S(=O)(=O)N1CCC(C)CC1 | 10%[46.1 µM] | -3.2% | . | -5% | . | . | 6%[46.1 µM] | -18%
Cc1cccc(Oc2nccc(C(F)(F)F)c2C(=O)Nc2ccc(F)cc2F)c1 | ? | . | -2% | . | 10% | 0% | -24%[46.1 µM] | -3%
O=C(c1ccc2oc(CCc3ccccc3)nc2c1)N1CC[C@H](O)C1 | . | . | -4% | . | 16% | -1% | . | 69%[activator]
CCOc1ccc(NC(=O)Nc2cccnc2)cc1 | 2%[46.1 µM] | . | -2% | . | ? | 0% | 3% | 38%[activator]
C=CCNC(=O)C1(c2ccccc2)CC1(Cl)Cl (configuration not stated) | 0% | -1.6% | 12% | -12% | 2% | 13% | 9% | 7%
CC(=O)c1ccc(NCC(=O)N2CCN(c3ccccc3)CC2)cc1 | 0%[46.1 µM] | -19% | 4% | ? | -1% | 4% | 7% | -9%
CC1CC(NC(=O)C2C3CCC(O3)C2C(=O)O)CC(C)(C)C1 (configuration not stated) | ? | 3.0% | 15% | -9% | -1% | 15% | ? | -9%
O=C(CN1C(=O)CCS(=O)(=O)c2ccccc21)Nc1cccc(F)c1 | 15% | 0.4% | 2% | 1% | -25% | . | 1% | 5%
O=C(CCC(=O)Nc1ccccc1)N/N=C/C=C/c1ccccc1 | ? | -4.4% | 11% | ? | -1% | 2% | 5% | 14%
Cc1c(NC(=O)c2ccc(=O)oc2)c(=O)n(-c2ccccc2)n1C | -2% | -3.8% | ? | -16% | 5% | 0% | 12% | ?
CCN(CC(=O)NCc1cccs1)C(=O)c1cccc(S(=O)(=O)Nc2ccccc2OC)c1 | -18% | . | 6% | . | ? | ? | -10% | -3%
Cc1ccc(C(=O)NCCCN2CCOCC2)cc1 | 15% | . | . | . | 0% | . | 20% | 31%[activator]
COc1ccc(-c2ccc(CCC(=O)O)n2-c2ccccc2O)cc1 | -11%&-11%[46.1 µM] | -16% | -41% | 0% | -20% | -2% | -7%[46.1 µM] | 38%&21%[activator]
Cc1cc(Nc2ccccc2C(=O)O)n(-c2cccc(Cl)c2)n1 | . | . | 1% | . | 32% | 0% | . | -16%
CCN(CC)C(=O)c1cnn(-c2ccccc2)c1NC(=O)c1cccs1 | 1% | -1.9% | 0% | 4% | -9% | 4% | 7% | -11%
Cc1cc(C)c(NC(=O)CCN2CCN(Cc3ccccc3)CC2)c(C)c1 | ? | . | . | . | -27% | . | -16% | -25%
CC1(CC(=O)N/N=C/c2cc(Br)c(O)cc2O)OCCO1 | 17% | -0.4% | -69% | -2% | 9% | 5% | 9% | .
COc1ccc(-c2nc(CS(=O)(=O)CC(=O)NCCCN3CCOCC3)c(C)o2)cc1 | 1%[46.1 µM] | . | 8% | . | -15% | 2% | 2%[46.1 µM] | 4%
CCCC(=O)N1CCN(c2ccc(NC(=O)c3ccc4c(c3)OCCO4)cc2)CC1 | 8%[46.1 µM] | . | -4% | . | -15% | 2% | 7% | ?
COc1ccc(NC(=O)NN2CCN(C)CC2)cc1 | 8%[46.1 µM] | . | 4% | . | 4% | -1% | -4%[46.1 µM] | 3%
COc1cc2[nH]c(=O)n(CCCCCC(=O)NCCCN3CCC(C)CC3)c(=O)c2cc1OC | -5%&-5% | -3.5% | -7% | -25% | -1% | -12% | -2% | 2%
O=C(Nc1cccc(NC(=S)NC(=O)c2cccs2)c1)c1ccccc1 | ? | -11% | 21% | -13% | 4% | 19% | -29% | 1%
C=CCN(Cc1cc(OC)ccc1OC)S(=O)(=O)N(C)C | ? | 0.5% | -3% | 1% | -13% | 9% | ? | -29%
COC(=O)c1cc(S(=O)(=O)n2nc(C)c(Br)c2C)c(Cl)cc1Cl | -25% | -5.6% | -8% | -11% | 0% | -3% | -14% | ?
COc1ccc(NC(=O)c2oc3ccccc3c2NC(=O)COc2ccccc2OC)c(OC)c1 | ? | 0.6% | -2% | ? | -6% | 2% | ? | 10%
CCCOc1cccc(C(=O)NCCNC(=O)c2ccco2)c1 | 4%[46.1 µM] | . | 11% | . | 7% | 10% | ? | 2%
CCCC1=C(C(=O)OCC)C(c2cccs2)C(C#N)=C(N)O1 (configuration not stated) | 6% | -12% | ? | -5% | 0% | 1% | 11% | -22%
O=C(COC(=O)c1sc2ccccc2c1Cl)NCC1CCCCC1 | ? | 5.9% | 5% | ? | -9% | 0% | 21% | 0%
CSCCC(NC(=O)COc1ccccc1)C(=O)NCc1cccs1 (configuration not stated) | . | . | 9% | . | 7% | -4% | . | -7%
Cc1cccc(NC(=O)C(=O)NCC(c2ccc3c(c2)OCO3)N2CCN(C)CC2)c1C (configuration not stated) | . | 0.5% | . | -14% | . | . | ? | -11%
CCOc1ccc(-c2c(C)nn3c(-c4ccccc4)c(C(=O)NCCOC)cnc23)cc1OCC | . | -1.8% | . | -7% | . | . | 21%[46.1 µM] | -31%
CCOC(=O)c1ccc(-n2c(-c3ccco3)nc3ccccc3c2=O)cc1 | 1% | 0.4% | -3% | 11% | 25% | 5% | 10% | 5%
Cc1ccc(-n2nc(C)c(NC(=O)CCl)c2C)cc1 | ? | -2.2% | -5% | 6% | . | ? | 10µM* | -25%

# Full records as entered above. Order of screens: Marburg entry inh	Cruzain inh Det	NS1 inh	Cruzain noTriton	RE007 growth inh	SARS PLP yeast	Lassa entry inh	StopGo reporter
# Cc1sc2ncn(CC(=O)N(C)c3ccc(C(C)C)cc3)c(=O)c2c1S(=O)(=O)N1CCC(C)CC1 is listed as 10%[46.1 µM]	-3.2%	.	-5%	.	.	6%[46.1 µM]	-18%
# C=CCN(Cc1cc(OC)ccc1OC)S(=O)(=O)N(C)C is listed as ?	0.5%	-3%	1%	-13%	9%	?	-29%
# O=C(CN(Cc1ccco1)C(=O)CNS(=O)(=O)c1ccc(F)cc1)NCCc1ccccc1 is listed as ?	4.8%	-6%	1%	6%	-2%	-5%	-12%
# CCN(CC)C(=O)c1cnn(-c2ccccc2)c1NC(=O)c1cccs1 is listed as 1%	-1.9%	0%	4%	-9%	4%	7%	-11%
# COc1cc2[nH]c(=O)n(CCCCCC(=O)NCCCN3CCC(C)CC3)c(=O)c2cc1OC is listed as -5%&-5%	-3.5%	-7%	-25%	-1%	-12%	-2%	2%
